Source: PubChem BioAssay (Broad Institute)
Tgondii IFNg: T. gondii growth inhibition with IFN-gamma, primary screen, cell-based | Toxoplasma gondii growth in IFN-gamma-treated host cells; active compounds read low; reference of the scale not given here | activity change, negative = inhibition, %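 (about 20 µM by stock and volumes)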 | 3.8% of 69,000 active;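 active = below -70%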;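 also: host cells are HeLa cells infected with Toxoplasma gondii; parasite growth read as luciferase light; one replicate is shown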
* marks the source's active call; other numbers are inactive results. These rows are one share of the data; count on the stated rates, not on these rows.

SMILES	Tgondii IFNg
Cn1c(CC2Sc3ccccc3NC2=O)nnc1SCC(=O)c1ccc(Cl)cc1 (stereo not given)	20
O=C(c1ccccn1)N1CC[C@@]2(C1)C(=O)NC[C@H]2COc1ccccn1	-15
O=C1/C(=c2\sc3nc4ccccc4n3c2=O)c2ccccc2N1Cc1ccccc1	7
C=CCOCc1cncc2c1CCN(Cc1ccc3c(c1)OCO3)C2	1
O=C(c1cccs1)N1CCC2(CC1)CC(OCC1CC1)CO2 (stereo not given)	115
CCOc1ccc(C2CC(=O)c3c([nH]c(C(=O)OCCSC)c3C)C2)cc1 (stereo not given)	-5
CCOC(=O)N1CCC2(CC1)OC(=O)C(C)=C2C(=O)Nc1cc(OC)cc(OC)c1	125
Cc1cncc(C(=O)N2CCC3(CC2)C(=O)NCC3c2ccccc2)c1 (stereo not given)	-41
C=Cc1cccc(CN2CCC3(CC2)CNC(=O)C3)c1	-4
CCOC(=O)C1(CC)NC(c2ccc(N(C)C)cc2)C2C(=O)N(CC)C(=O)C21 (stereo not given)	-39
Cc1ccc(NC(=O)N2CCC3(CC2)Nc2cc(F)ccc2-n2cccc23)cc1Cl	93
O=C(NC(=S)OCc1ccccc1Cl)c1ccco1	33
CC(=O)c1ccc(N2CCCCC2)c(NC(=S)Nc2cc(Cl)ccc2Cl)c1	55
Cc1oc2c(c1C(=O)NCc1cc(=O)n3[nH]c(-c4cccs4)cc3n1)CCCC2	88
COc1ccc([C@H]2C/C=C\C[C@H](c3cccc(Cl)c3)NC(=O)[C@@H](c3ccccc3)CC(=O)N2)c(OC)c1	42
O=C(CSCCOc1ccccc1)NCc1ccncc1	10
COc1cccc(CCC(=O)Nc2ccc3c(c2)CCC(=O)N3C)c1	-12
COc1cc(CN2CCc3c([nH]c4ccccc34)C2c2cccc(O)c2)cc(OC)c1OC (stereo not given)	-34
CN1CCN(C(c2cccs2)N2CCN(C)CC2)CC1	30
CC(C)CCN1c2nc(Nc3cc(F)c(O)c(F)c3)ncc2N(C)C(=O)C1C (stereo not given)	-84*
CC(=O)N1CCC(C(=O)NCc2ccccc2)(N(Cc2ccc(F)cc2)C(=O)c2ccc(C)cc2)CC1	-41
Cc1ccc(NC(=O)CCNS(=O)(=O)c2ccccc2)c(C(=O)c2ccccc2)c1	-1
Cc1ccc(C(=O)Nc2nnc(C(C)(C)C)s2)cc1	404
COc1ccc(C)cc1NS(=O)(=O)c1cc2c3c(c1)CCC(=O)N3CCC2	40
Cc1c(C(=O)NCC2(O)CCCNCC2)sc2ccccc12 (stereo not given)	6
Cc1n[nH]c(C)c1CCC(=O)NCc1cccnc1N1CCCN(C)CC1	5
COc1ccc(S(=O)(=O)N(C)C[C@H]2Oc3c(cccc3N(C)C)C(=O)N([C@@H](C)CO)C[C@@H]2C)cc1	-16
Cc1noc(-c2cc(=O)n(CC(=O)Nc3ccccc3Cl)c3ccccc23)n1	-8
CCn1nc(C)c(NC(=O)CN2CCC(c3nc4c(C)cccc4[nH]3)CC2)c1C	2
CC(=O)N1C(C(=O)O)CSC1c1ccc(Cl)cc1 (stereo not given)	15
O=C(O)c1cc2n(n1)CCN(Cc1cn[nH]c1C1CCCCC1)C2	0
Cc1ccc(C)c(S(=O)(=O)Nc2ccc3c(c2)CCC(=O)N3CC(C)C)c1	-52
COc1cccc(-c2nc3c(s2)CN(S(=O)(=O)c2ccc(Cl)cc2)CC3)c1	-58
Clc1ccc(C2=CC(c3cccs3)n3nnnc3N2)c(Cl)c1 (stereo not given)	-64
Cc1nc2ccccc2n1CC(=O)NC(c1ccccc1)c1cccs1 (stereo not given)	20
O=C(Cc1ccc(F)cc1)Nc1ccc(-c2nc(-c3ccccc3)co2)cc1	-5
COc1ccc(C(=O)Nc2ccc(-c3nc(Cn4cc(C)cn4)c(C)o3)cc2)cc1F	34
COc1ccc(OC)c(S(=O)(=O)N2CCC3(CC2)Nc2cc(F)ccc2-n2cccc23)c1	17
CN(C)C(=O)CC1CC2(CCN(CC3CCOCC3)CC2)Oc2ccccc21 (stereo not given)	-6
Cn1c(-c2ccccc2)nc2ccccc21	108
Cc1ccc2nc(SCC(=O)Nc3ccccc3Cl)[nH]c2c1	3
CCCN1C(=O)C2(NCCc3c2[nH]c2ccc(OC)cc32)c2cc(Br)ccc21 (stereo not given)	53
CCOC(=O)c1sc2ccc(NC(=O)c3ccccc3Cl)cc2c1C	8
COCCN1Cc2cccc(C(=O)N3CCC(c4cc(=O)[nH]c(N(C)C)n4)C3)c2C1=O (stereo not given)	95
CN1c2ccc(F)cc2[C@@H]2CN(C(=O)c3ccco3)CC[C@H]21	-22
CC12CN3CC(C)(CN(C1)C3(C)CCC(=O)O)C2=O (stereo not given)	-3
O=c1c2ccccc2nnn1Cc1nc(Cc2ccccc2)n[nH]1	-28
Cc1ccc(CNC(=O)C2CC(=O)OC23CCCC3)c(C)c1 (stereo not given)	-3
Cc1c(OCc2ccc(Cl)c(Cl)c2)ccc(-c2ccn[nH]2)c1O	319
CC/C=C/CC(=O)N(Cc1ccncc1)C(C)CC (stereo not given)	2
COCc1nnc(NC(=O)CN2CCCC(Cc3nc4ccccc4[nH]3)C2)s1 (stereo not given)	-3
Cc1nc(-c2cccc(F)c2)sc1CCNS(=O)(=O)c1ccc(Cl)s1	25
Cc1ccc(NC(=O)CN2CCN(Cc3ccccc3)CC2)cc1Cl	-24
Cn1nc(C(F)(F)F)c2cc(C(=O)N3CCCC(c4ccn[nH]4)C3)sc21 (stereo not given)	3
CC=Cc1ccc2n(c1=O)C[C@@H]1[C@@H](CO)[C@H](C(=O)NCC(F)(F)F)N(C(=O)c3cccnc3)[C@H]21 (mixture of isomers)	4
CN(C)C(=O)c1ccc(-c2ccccc2[C@H]2[C@H](C#N)N(C(=O)C3CC3)[C@H]2CO)cc1	7
Cc1oc(-c2ccccc2Cl)nc1CSc1nc2c(=O)[nH]cnc2n1-c1ccccc1	-3
CCCCC(C1=CCCN(C)C1)N(C)C(=O)c1cccs1 (stereo not given)	-3
Cc1cnc(C(=O)Nc2nn[nH]n2)cn1	7
CCCCCCCCCCCCCCSCC(=O)O	9

For reference, 21 of the compounds above.
SMILES	Tgondii IFNg
CN(C)C(=O)CC1CC2(CCN(CC3CCOCC3)CC2)Oc2ccccc21 (stereo not given)	-6
Cn1c(-c2ccccc2)nc2ccccc21	108
Cc1ccc2nc(SCC(=O)Nc3ccccc3Cl)[nH]c2c1	3
CCCN1C(=O)C2(NCCc3c2[nH]c2ccc(OC)cc32)c2cc(Br)ccc21 (stereo not given)	53
CCOC(=O)c1sc2ccc(NC(=O)c3ccccc3Cl)cc2c1C	8
COCCN1Cc2cccc(C(=O)N3CCC(c4cc(=O)[nH]c(N(C)C)n4)C3)c2C1=O (stereo not given)	95
CN1c2ccc(F)cc2[C@@H]2CN(C(=O)c3ccco3)CC[C@H]21	-22
CC12CN3CC(C)(CN(C1)C3(C)CCC(=O)O)C2=O (stereo not given)	-3
O=c1c2ccccc2nnn1Cc1nc(Cc2ccccc2)n[nH]1	-28
Cc1ccc(CNC(=O)C2CC(=O)OC23CCCC3)c(C)c1 (stereo not given)	-3
Cc1c(OCc2ccc(Cl)c(Cl)c2)ccc(-c2ccn[nH]2)c1O	319
CC/C=C/CC(=O)N(Cc1ccncc1)C(C)CC (stereo not given)	2
COCc1nnc(NC(=O)CN2CCCC(Cc3nc4ccccc4[nH]3)C2)s1 (stereo not given)	-3
Cc1nc(-c2cccc(F)c2)sc1CCNS(=O)(=O)c1ccc(Cl)s1	25
Cc1ccc(NC(=O)CN2CCN(Cc3ccccc3)CC2)cc1Cl	-24
Cn1nc(C(F)(F)F)c2cc(C(=O)N3CCCC(c4ccn[nH]4)C3)sc21 (stereo not given)	3
CC=Cc1ccc2n(c1=O)C[C@@H]1[C@@H](CO)[C@H](C(=O)NCC(F)(F)F)N(C(=O)c3cccnc3)[C@H]21 (mixture of isomers)	4
CN(C)C(=O)c1ccc(-c2ccccc2[C@H]2[C@H](C#N)N(C(=O)C3CC3)[C@H]2CO)cc1	7
Cc1oc(-c2ccccc2Cl)nc1CSc1nc2c(=O)[nH]cnc2n1-c1ccccc1	-3
CCCCC(C1=CCCN(C)C1)N(C)C(=O)c1cccs1 (stereo not given)	-3
Cc1cnc(C(=O)Nc2nn[nH]n2)cn1	7

Later entries
SMILES	Tgondii IFNg
CCCc1cc(CNC(=O)c2cc3cccc(C)c3nc2C)on1	102
Cc1ncsc1CCN(C)c1nc(-c2cccnc2)nc2c1cnn2C	-35
COCC1(C(=O)NCc2nncn2C2CCCCC2)CCC1	-2
Cc1ccc(NC(=O)N2CCC3(CC2)Nc2cc(F)ccc2-n2cccc23)c(C)c1	67
CCn1c(C)nc2cc(NC(=O)c3cnc(N4CCOCC4)nc3)ccc21	-8
C[C@@H]1CCCCO[C@H](CN(C)C(=O)CCC(F)(F)F)[C@@H](C)CN([C@H](C)CO)C(=O)c2cc(NC(=O)C3CCCCC3)ccc2O1	75
NC1(C(=O)O)CCN(Cc2ccc(-c3ccn[nH]3)s2)C1 (stereo not given)	-3
Cc1cc(C)n(CC(C)n2cnnc2)n1 (stereo not given)	-3
O=C(O)C1CCCN(c2ccccn2)C1 (stereo not given)	17
Cc1noc(C)c1S(=O)(=O)N(C)C[C@@H]1OCCCC[C@@H](C)Oc2ccc(NS(=O)(=O)c3cn(C)cn3)cc2C(=O)N([C@@H](C)CO)C[C@H]1C	93
CC(Oc1cccc(Br)c1)C(=O)NCc1ccc(-n2cccc2)cc1 (stereo not given)	-48
NC(=O)NC(=O)c1nc2nonc2[nH]c1=O	8
Cc1cc(OCCN2CCNCC2)cc(C)c1Cl	-58
O=C(CS(=O)CC(=O)Nc1ccc2c(c1)OCCO2)Nc1ccc(Cl)cc1 (stereo not given)	34
Cc1ccc(C(C)CCN2CCC3(CC2)C(=O)N(C2Cc4ccccc4C2)C(=O)N3CC(C)C)o1 (stereo not given)	-35
O=C(NCc1ccccc1Cl)C1(c2ccccc2)CCCC1	-5
CN(C)CC1(O)CCCN(C(=O)c2ccc3ccccc3n2)C1 (stereo not given)	1
CC(C)COC(=O)c1nc(Cl)c(Cl)c(N)c1Cl	-96*
CCn1c(=O)c(C(=O)Nc2ccc(C)c(Cl)c2)c(O)c2ccccc21	68
COC(=O)c1cc(C)nc(Sc2n[nH]c(-c3cc(Cl)cc(Cl)c3)n2)n1	-43
Cc1nc(C(=O)N(CC2COc3ccccc3O2)C(C)C)cs1 (stereo not given)	2
CN1CCCC2(CC1)CCN(S(=O)(=O)c1ccccc1F)CC2	-3
COc1cc(CN2CC3(CN(C(=O)CN4CCOCC4)C3)c3c(n(C)c4cc(OC)ccc34)[C@H]2CO)cc(OC)c1	-36
CC1=C(C(=O)NCc2ccc3c(c2)OCO3)C2(CCN(Cc3ccccc3)CC2)OC1=O	7
CN1CCC2(CCOCC2NC(=O)c2ccccc2)CC1 (stereo not given)	-1
CCc1nc(N2CC[C@@H](N3CCC(O)CC3)[C@H](O)C2)ncc1C	2
CCC(COC(=O)Nc1cc(C)ccc1C)NC(=O)Oc1ccccc1 (stereo not given)	0
Cc1ccc(CN2CCCn3c(CN4CCCC4)nnc3C2)o1	-6
CCC(NC(=O)c1cn[nH]c1-c1ccccc1)c1ccnn1C (stereo not given)	5
Cc1cccc(C(=O)N2CCCC3(COCCN(c4cccnc4)C3)C2)n1 (stereo not given)	-26
COC(=O)c1ccc(NC(=O)C(=O)NCCc2csc(-c3ccc(F)cc3)n2)cc1	79
O=C(/C=C/c1cccc(S(=O)(=O)Nc2ccccc2)c1)NO	-71*
Cc1ccc2c(c1C)-n1cccc1C1(CCN(C(=O)C3CCCC3)CC1)N2	333
CCOc1ccc(N2C(=O)N(c3ccccc3C)C3CS(=O)(=O)CC32)cc1 (stereo not given)	-26
Cc1cccc(CN2C[C@@H]3CN(C(=O)c4ccc[nH]4)C[C@H]3C2=O)c1	7
CN1CCN2CCN(C(=O)c3ccc(NCc4ccncc4)cc3)CC2C1 (stereo not given)	26
O=C1CCC(c2nc(C3CCN(Cc4ccsc4)CC3)no2)N1 (stereo not given)	-22
Cc1nc(SCc2c(Cl)cccc2Cl)[nH]c(=O)c1CN1CCCCC1	3
CN1C[C@H](NC(=O)c2ccccc2N2CCS(=O)(=O)CC2)C[C@H]1CO	2
COCC1(C(=O)N(Cc2nccn2C)C2CC2)CCC1	3
COc1cc(COC2CN(C3CCCC3)CC(=O)N(C(C)C)C2)cc(OC)c1 (stereo not given)	2
CCCc1nc(C(=O)N(C)Cc2n[nH]c3c2CCC3)cs1	-10
CC1(C)[C@]2(C(=O)NCc3cc(-c4ccco4)on3)CC[C@@]1(C)OC2=O	13
CCOCC1CN(C(=O)/C=C/c2cccs2)Cc2c1cnn2CC (stereo not given)	-14
CN(C)CC1(O)CCN(C(=O)CCc2ccc3c(c2)OCO3)C1 (stereo not given)	2
CC#CC(=O)N1CC(=O)N(C2CCCCC2)CC(OCc2ccccc2)C1 (stereo not given)	-5
CN1C(=O)C2(CCN(Cc3ccccn3)CC2)C1c1ccccc1 (stereo not given)	10
COc1cc(CO)ccc1OCc1nnnn1-c1ccc(C)cc1	3
CCC(CC)CNCC1Cn2nnc(-c3cncnc3)c2CO1 (stereo not given)	20
Cc1nocc1C(=O)NC1CC2(CCN(C)CC2)Oc2ccccc21 (stereo not given)	2
NC1CCN(c2nc(-c3ccccc3)nc3c2CCNC3)C1 (stereo not given)	-23
O=C(NC(=O)c1csnn1)Nc1cc(C(F)(F)F)cc(C(F)(F)F)c1	-101*
CCOc1cc(C=O)ccc1OCCSc1ccc(C)cc1	26
COc1ccc(OC)c(S(=O)(=O)NCCc2sc(-c3cccc(F)c3)nc2C)c1	83
O=c1ccc2cc(S(=O)(=O)N3CCc4ccccc43)ccc2[nH]1	24
CS(=O)(=O)N1CC2C[C@@H](F)[C@@H](O)C2C1 (stereo not given in full)	57
CCN1C[C@]23CN(C(=O)C(C)C)C[C@@H](C[C@H]2S1(=O)=O)O3	3
CCOCC1CN(Cc2c(C)noc2C)Cc2ncn(CC3CC3)c21 (stereo not given)	-6
C=C(C)CNC(=S)Nc1scc(-c2ccsc2)c1C(=O)OCC	3
O=C(CC1NC(=O)c2ccccc21)NCCc1nc(-c2ccncc2)n[nH]1 (stereo not given)	88
O=S(=O)(c1ccc(Br)s1)N1CCC2(CC1)Nc1ccccc1-n1cccc12	17
Cc1cc(NC(=O)CNCc2noc(C3CCCO3)n2)ccc1Cl (stereo not given)	3
